VACV Venus inh – inhibitors of vaccinia virus (Venus reporter) | Vaccinia virus Venus reporter expression, fluorescence | Potency, µM (highest dose often 36.5 µM), without a hit: top-dose activity change, negative = inhibition, hits mostly inhibitors | hit rate 0.46% among 330,000 | AID 720580; active means well fitted inhibition curve with a large enough effect; inconclusive means small, poorly fitted or top-dose-only effect; inactive means no such curve, though single readings can be large or run the other way; tested in A549 cells; further: nearly all actives have a fitted effect of over 30% in size; inactives centre near -10
VACV mCherry inh – inhibitors of vaccinia virus infection (mCherry reporter signal) | Potency, µM (series often up to 36.5 µM), for inactives: at the top dose activity change, negative = inhibition, actives largely listed as inhibitors | hit rate 0.63% among 310,000 | AID 720579 | Vaccinia virus mCherry reporter infection, fluorescence; about a quarter of the inactives have no number; active = well fitted inhibition curve with a large enough effect; inconclusive = small, poorly fitted or top-dose-only effect; inactive = no such curve, though single readings can be large or run the other way; tested in A549 cells; further: nearly all actives have a fitted effect of over 35% in size; inactives centre near -10
* hit, by the source's call; i = inactive; ? = inconclusive; / = no result given; [ ] = dose if it differs, or a comment. On the % scale 0 is the no-effect control and ±100 the full control effect; potency means the concentration at half of the fitted maximal effect.

Structure,VACV Venus inh,VACV mCherry inh
C=CCc1c(C)nc2ccc(C(=O)OCC)cc2c1Cl,-14.8%,i
CCn1cc(C(=O)NCCc2ccc(OC)c(OC)c2)c(=O)c2cc(S(=O)(=O)N(C)C3CCCCC3)ccc21,?,?
CCNc1nc(NC(C)C)nc(Oc2ccc(OCCOc3ccccc3)nn2)n1,-6.5%,-14.0%
CN1CCCC(CNC(=O)c2cnn(-c3ncc4c(n3)-c3ccccc3CC4)c2C2CC2)C1 (stereo not drawn),-1.2%,-19.4%
CCOC(=O)C1CCCN(C(=O)Cn2ncc3c(C)n(Cc4ccccc4Cl)c(C)c3c2=O)C1 (stereo not drawn),-18.5%,-9.0%
COc1ccc(NC(=S)NCCNC(C)=O)cc1,-12.0%,-18.6%
CCC1(C)Cc2nc3[nH]c(=S)n(-c4ccccc4)c(=O)c3cc2CO1 (stereo not drawn),4.6%,-10.5%
CCCN(CC1CC1)C(=O)COC(=O)c1ccc(CNS(=O)(=O)c2ccc(F)c(Cl)c2)cc1,-0.8%,-0.1%
CCOc1ccc(NC(=O)C2CCN(S(=O)(=O)c3cc(-c4noc(C)n4)ccc3C)CC2)cc1,-23.8%,i
Cc1ccc(CN2CCc3c(OCc4ccc(F)cc4)cccc3C2=O)cc1,?,?
COc1ccc2cc(S(=O)(=O)Nc3ccccn3)ccc2c1,3.0%,i
CCC(=O)Nc1ccc(C(=O)CSc2nnc(-c3ccc(NS(=O)(=O)CC)cc3)o2)cc1OC,-13.5%,-11.6%

Continued.
Structure,VACV Venus inh,VACV mCherry inh
COc1ccccc1NC(=O)CSc1nc(-c2ccccc2F)nc2cc(=O)[nH]n12,-9.9%,-13.4%
CCCC(=O)OC1CCS(=O)(=O)c2sccc21 (stereo not drawn),-15.2%,-12.6%
COC(=O)C1C(c2ccc(OC)cc2)Nc2nnc(C(F)(F)F)n2C1(C)O (stereo not drawn),-7.6%,-20.7%
COC(=O)C1=C(C)N(c2ccc(F)cc2)/C(=C/c2ccc(O)cc2)C1=O,-5.7%,-10.5%
Cc1cccc(CN2CCC(CNc3ncnc4onc(-c5ccc(Cl)cc5)c34)CC2)c1,-16.4%,-21.2%
CN(C)CC(O)c1ccc(C=Cc2ccc(Cl)cc2)cc1 (stereo not drawn),-2.6%,-2.4%
O=C(CCc1nc(-c2ccccc2F)no1)Nc1cccc(C(F)(F)F)c1,-11.4%,-7.2%
CC(=O)c1c(C)oc2c1C(=O)c1ccccc1C2=O,-2.4%,-15.0%
Cc1cc(NC(=O)C2CC=CCC2C(=O)O)ccc1NC(=O)c1ccccc1 (stereo not drawn),-7.1%,i
COc1ccc(OC)c(/C=C/c2nc3ccccc3[nH]c2=O)c1,-7.5%,-10.3%
COc1ccc(OC)c2[nH]c(=O)c(CCNC(=S)NC(C)(C)C)cc12,-4.8%,-3.0%
C[C@@H]1CN([C@@H](C)CO)C(=O)CCCn2nncc2CO[C@H]1CN(C)C(=O)Nc1ccnc(N2CCOCC2)c1,-3.9%,-11.0%

Among those listed so far, two have an aryl thioether with sulfur outside any ring:
Structure,VACV Venus inh,VACV mCherry inh
CCC(=O)Nc1ccc(C(=O)CSc2nnc(-c3ccc(NS(=O)(=O)CC)cc3)o2)cc1OC,-13.5%,-11.6%
COc1ccccc1NC(=O)CSc1nc(-c2ccccc2F)nc2cc(=O)[nH]n12,-9.9%,-13.4%

(continued)
Structure,VACV Venus inh,VACV mCherry inh
Oc1c(Br)cc(-c2ccccc2)cc1Br,6.9%,-16.6%
CCC(=O)c1ccc(OCC(O)Cn2cnc3ccccc32)cc1 (stereo not drawn),?,/
COc1ccc(Cl)cc1C(=O)NNC(=O)CSc1nnnn1C,-0.9%,-11.4%
Cc1ccc(Cl)c(NC(=O)COC(=O)c2cc[n+]([O-])cc2)c1Cl,-14.7%,-15.0%
CCc1ccc(OCC(=O)NCc2nc(-c3cccc(C)c3)no2)c(Br)c1,-20.7%,-26.0%
COc1cc2c(cc1OC)C(Cc1cc(OC)c(OC)cc1[N+](=O)[O-])=NCC2,-12.5%,-11.7%
CS(=O)(=O)C1=C(O)C(=O)N(c2ccccc2)C1c1ccccc1 (stereo not drawn),-11.1%,/
CCOc1ccc(NC(=O)c2ccc3nccnc3c2)cc1,-18.3%,-17.3%
O=C(CN1C(=O)NC(Cc2c[nH]c3ccccc23)C1=O)Nc1ccc(F)cc1F (stereo not drawn),-14.8%,-15.0%
O=C(COC(=O)c1ccc2ccccc2c1O)Nc1ccccc1,-18.4%,i
O=C(NN=Cc1ccc(Cl)cc1Cl)C1CC1,-15.9%,-11.0%
O=C(NCc1cccnc1)c1ccccc1NS(=O)(=O)c1ccccc1,-2.7%,-6.9%

Whole records, looked up by structure. Order of screens: VACV Venus inh | VACV mCherry inh
Profile of CCOc1ccc(NC(=O)c2ccc3nccnc3c2)cc1 : -18.3% | -17.3%
Profile of CS(=O)(=O)C1=C(O)C(=O)N(c2ccccc2)C1c1ccccc1 (stereo not drawn) : -11.1% | /
Profile of COc1ccc(Cl)cc1C(=O)NNC(=O)CSc1nnnn1C : -0.9% | -11.4%
Profile of CCC(=O)c1ccc(OCC(O)Cn2cnc3ccccc32)cc1 (stereo not drawn) : ? | /
Profile of O=C(NCc1cccnc1)c1ccccc1NS(=O)(=O)c1ccccc1 : -2.7% | -6.9%

(next part)
Structure,VACV Venus inh,VACV mCherry inh
CC(=O)NC(C)c1nc2ccccc2n1C(C)C (stereo not drawn),-2.2%,-9.7%
CN(C)S(=O)(=O)c1cccc(NC(=S)Nc2cccc3cnccc23)c1,-15.6%,?
COc1ccc(OC)c(CN2C(=O)c3ccccc3C2c2nnnn2-c2c(C)cccc2C)c1 (stereo not drawn),-3.4%,1.0%
Cc1ccccc1N1C(=O)C(Cc2ccc(F)cc2)S/C1=C(\C#N)C(N)=O (stereo not drawn),15.2%,i
O=[N+]([O-])c1ccc2c(c1)C=C/C2=C\c1ccccc1,-7.4%,17.5%
CC(=O)N1CCN(c2ccc(NC(=O)C(c3ccccc3)c3ccccc3)cc2)CC1,-15.1%,?
COc1cc(/C=N/Nc2nn3cnnc3c3ccccc23)ccc1O,-9.3%,?
CN(C)NC(=S)Nc1ccc(Cl)cc1,-11.9%,i
COc1c2ccccc2nn1C(C)C,1.8%,7.4%
O=C(CN1C(=O)NC2(CCCCC2)C1=O)Nc1cc(C(F)(F)F)ccc1N1CCCC1,-20.0%,-0.5%
CC(=O)Nc1nonc1-c1nnc(SCC(=O)Nc2ccc(F)cc2F)n1-c1ccccc1,-5.9%,-0.7%
O=C1OC2(CCCCC2)OC(=O)C1=CNc1nccs1,-6.7%,i

Remaining list, next part:
Structure,VACV Venus inh,VACV mCherry inh
Cc1ccccc1OCC(=O)Nc1ccc(-c2nc3ccccc3o2)cc1,-4.7%,-14.0%
COc1cccc(CSc2nc3ccncc3[nH]2)c1,-4.2%,i
CCOc1cc(/C=N/NC(=O)C(=O)NC2CC2)cc(Br)c1O,-1.2%,i
Cc1ccc(S(=O)(=O)N2CCC(C(=O)OCC(=O)Nc3cc(S(C)(=O)=O)ccc3Cl)CC2)cc1C,-8.6%,i
O=C(NCCC(=O)N1CCCC(C(F)(F)F)C1)c1ccc(Br)cc1 (stereo not drawn),-6.8%,-10.1%
CCOc1ccc(/C=N/Nc2ccccn2)cc1OC,-14.6%,-25.1%
CCOc1ccc(CN2CCNC(=O)C2CC(=O)NCc2csc(C)n2)cc1 (stereo not drawn),-11.4%,-9.4%
O=C(CSc1nc2c(c(=O)[nH]1)CCC2)Nc1ccccc1C(F)(F)F,8.0%,-1.9%
CCOc1ccc(C(=O)CC(Sc2ccc(C)cc2)C(=O)O)cc1 (stereo not drawn),-16.9%,-20.4%
CCCCNC(=O)Nc1nc2ccc(CC)cc2s1,-23.3%,i
Cc1c([C@@H]2C[C@H]3CN(Cc4cccc(Cl)c4)C(=O)[C@]34CCCN24)cnn1C,-4.5%,-7.1%
Cc1cc(NC(=O)C2CCCN(S(=O)(=O)c3ccc(Br)s3)C2)ccc1Br (stereo not drawn),-12.4%,-23.8%

(cont.)
Structure,VACV Venus inh,VACV mCherry inh
C1CCC2S[C@H]3CCCCC3NC2C1 (stereo partly drawn),-4.5%,-0.8%
CCOc1cc(N2CCOCC2)c(OCC)cc1NC(=O)COc1ncnc2ccc(Br)cc12,-23.2%,/
C=CCn1c(C)csc1=Nc1ccc(C(=O)O)cc1,-11.2%,i
O=C(CN1C(=O)C(=O)N(Cc2ccco2)C1=O)Nc1ccccc1,2.4%,-14.1%
O=C(CN1CCN(Cc2ccc3c(c2)OCO3)CC1)Nc1ccc2c(c1)OCCO2,-10.0%,i
c1csc(-c2nc3ccccc3[nH]2)c1,-4.0%,i
COc1ccc(CCNC(=O)c2cc(C(=O)c3cc(C)ccc3O)cn(CCc3ccc(OC)cc3)c2=O)cc1,-11.9%,-23.7%
COCCn1c(=O)c2ccccc2c2ccccc2c1=O,-16.4%,i
Cc1cc(C(=O)CSc2nnc3c(Cl)cc(Cl)cn23)c(C)n1C,-19.2%,/
COc1cccc(-n2cc(CN(C)C(=O)C3CCC(=O)N(C4CC4)C3)cn2)c1 (stereo not drawn),-4.4%,i
CC(C)(C)OC(=O)NCCCC[C@@H](C(=O)N1CCN(C(=O)OC(C)(C)C)CC1)n1cc(CCC(=O)O)nn1,0.5%,i
Cc1ccc(C(=O)N2CCCC(C(F)(F)F)C2)cc1S(=O)(=O)N1CCOCC1 (stereo not drawn),-5.9%,i

(more compounds)
Structure,VACV Venus inh,VACV mCherry inh
O=C(Nc1cccc(C(F)(F)F)c1)c1csc([C@@H]2C[C@H](O)[C@@H](CO)O2)n1,-12.4%,-7.1%
O=C(Nc1ccc2c(c1)OCCO2)c1cccn(Cc2cccc(F)c2)c1=O,-8.9%,-20.8%
COc1cc(-c2cc(C)c3c(OC)ccc(OC)c3n2)cc2c1OCCN(C(=O)Cn1nc(C)cc1C)C2,-3.9%,-20.3%
Cc1cccc(-c2nc(CS(=O)CC(=O)N3CC(C)CC(C)C3)c(C)o2)c1 (stereo not drawn),?,?
O=[N+]([O-])/C=C/c1cn(Cc2ccccc2)c2ccccc12,-18.5%,/
O=C(O)C1=C[C@H](c2cccs2)C[C@H](OCc2ccc(CO)cc2)O1,-7.4%,i
Cc1ccc(C(=O)Nc2nnc([C@H]3C[C@H](O)[C@@H](CO)O3)s2)cc1,-5.2%,-14.5%
COc1ccc(/C=C2\C(=O)OCc3cc(OC)c(OC)cc32)cc1OC,-16.7%,-15.7%
Cc1ccc(S(=O)(=O)c2cnc3cc(C)nn3c2N)cc1,-10.9%,i
COc1ccc(N(C)S(=O)(=O)c2cccc(C(=O)N3CCN(S(=O)(=O)c4ccc(C)cc4)CC3)c2)cc1,-23.6%,i
COc1cc(OC)cc(C(=O)NCCS(=O)(=O)N2CCN(Cc3ccccc3)CC2)c1,3.7%,-24.0%
CCOc1ccc(CNC(=O)CCCn2nc(C)c3c(C)n(-c4ccc(C)cc4)nc3c2=O)cc1,?,?

Next part.
Structure,VACV Venus inh,VACV mCherry inh
CCOC(=O)N1CCC(NCCNC(=O)c2ccccc2)CC1,-12.1%,i
COc1ccc(OC(=O)c2cccc([N+](=O)[O-])c2)c(C(=O)/C=C/c2cccs2)c1,?,/
CCCCCC(=O)Nc1cccc(C2=NOC3(C2)C[C@H](C(N)=O)N(C(=O)c2ccccc2)C3)c1 (stereo partly drawn),-24.3%,-11.8%
NC(=O)c1ccc2c(c1)OCCO2,-6.3%,/
CCCC(C(=O)NCc1ccco1)N(C(=O)CNS(=O)(=O)c1ccccc1)c1ccccc1OC (stereo not drawn),6.0%,/
COc1cc2c(cc1OC)Cc1cc(OC)c(OC)cc1Cc1cc(OC)c(OC)cc1C2,-19.7%,-24.9%
CCC(C)C(NC(=O)OCc1ccccc1)C(=O)NC(Cc1ccc(O)cc1)C(=O)OC (stereo not drawn),-8.5%,i
Nc1nonc1-c1noc(CCCN2C(=O)c3ccccc3C2=O)n1,-4.9%,-12.3%
COc1ccc(C2OCC(C)([N+](=O)[O-])CO2)cc1 (stereo not drawn),-1.7%,-13.5%
CCS(=O)(=O)c1nc(S(=O)(=O)c2ccc(Cl)cc2)c(N2CCC(O)CC2)s1,-3.2%[7.34 µM],-6.8%[7.34 µM]
CC(C)(C)NC(=O)C[C@H]1C[C@H](C(=O)N2CCCCC2)[C@@]2(CCc3ccccc3)c3[nH]c4cc(-c5ccco5)ccc4c3CCN2C1=O,?,-14.4%
COc1ccc(S(=O)(=O)N2CCC(C(=O)N3CCN(C)CC3)CC2)cc1OC,3.6%,-0.2%

New compounds follow:
Structure,VACV Venus inh,VACV mCherry inh
COc1ccc2nc3oc(C(=O)N4CCN(c5cccc(Cl)c5)CC4)cc3cc2c1,-4.4%,i
CN(C)c1cccc(C(=O)N/N=C/c2ccoc2)c1,-16.3%,-10.2%
CC(C)c1ccc(NC(=O)NC2CCN(CC(=O)Nc3cccc4ccccc34)CC2)cc1,-10.8%,-6.2%[1.46 µM]
O=C(O)C(O)C(O)c1nc2ccccc2[nH]1 (stereo not drawn),-5.4%,5.0%
COc1ccc(CCNC(=O)CCC(=O)N2CCOc3ccc(C)cc32)cc1OC,?,-9.6%
CCOC(=O)Cc1csc(NS(C)(=O)=O)n1,1.1%,3.8%

Compound activity deposited in PubChem by National Center for Advancing Translational Sciences (NCATS).
